Bioassay records: PubChem BioAssay, National Center for Advancing Translational Sciences (NCATS)
VDR inhibitor – blocks the human vitamin D receptor. VDR-SRC2-3 peptide fluorescence polarization, 2 h. Potency, µM, inactives show max response, negative = inhibition, most hits filed as inhibitors. 0.93% of 400,000 active. P11473; active = well fitted inhibition curve with a large enough effect; inconclusive = small, poorly fitted or top-dose-only effect, or another doubt; inactive = no such curve, though single readings can be large or run the other way; also: series mostly up to about 120 µM
Target sequence (P11473 whole entry, looked up): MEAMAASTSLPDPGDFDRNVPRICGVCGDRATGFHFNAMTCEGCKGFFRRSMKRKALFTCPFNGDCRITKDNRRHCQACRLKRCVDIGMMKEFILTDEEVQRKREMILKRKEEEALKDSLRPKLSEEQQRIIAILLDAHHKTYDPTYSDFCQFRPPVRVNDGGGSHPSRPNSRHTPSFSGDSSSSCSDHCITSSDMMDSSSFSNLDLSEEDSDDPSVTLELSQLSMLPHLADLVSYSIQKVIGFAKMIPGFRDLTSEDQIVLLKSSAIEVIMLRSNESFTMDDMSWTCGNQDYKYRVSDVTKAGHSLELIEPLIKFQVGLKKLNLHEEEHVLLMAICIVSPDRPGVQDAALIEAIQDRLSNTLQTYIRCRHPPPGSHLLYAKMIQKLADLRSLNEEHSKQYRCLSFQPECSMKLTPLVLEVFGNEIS
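FP read-out; VDR + SRC2-3 coactivator peptide; 23 nl compound by pintool; 2 h RT incubation; reagents held at 4 deg C, protected from light.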
* marks the source's active call; other numbers are inactive results; [ ] = dose if it differs, or a comment. % is scaled to controls: 0 for no effect and ±100 for the full control effect; potency is read from the fitted curve at half-maximal effect.

`COc1ccc(CNC(=O)C(C)n2nc(C)c3c(C)n(-c4ccccc4)nc3c2=O)c(OC)c1` (stereo not drawn) gave VDR inhibitor 10%.
CCOc1ccc(-n2ccnc2SCC(=O)Nc2ccc(OC)cc2OC)cc1 was read as VDR inhibitor 1%.
`O=C(COc1ccccc1Cl)NCCNC(=O)c1ccncc1` gave VDR inhibitor -3%.
Screening CN1CCN(C(=O)c2cccn(Cc3ccc(C(F)(F)F)cc3)c2=O)CC1 returned VDR inhibitor -19%.
For O=C(NCc1ccccn1)c1cccs1 the results were VDR inhibitor 4%.
Screening Cn1ncc(Br)c1NC(=O)Nc1ccccc1 returned VDR inhibitor -22%.
Screening COc1ccc(NC(=O)CSc2nc3cccnc3n2C)cc1 returned VDR inhibitor 13%.
Screening C=CC[n+]1c(/C=C/c2ccc(OC(C)=O)c(OC)c2)ccc2ccccc21 returned VDR inhibitor 24%.
`CC(=O)N1c2ccc(S(=O)(=O)Nc3ccc(C)c(Cl)c3)cc2CC1C` (stereo not drawn) gave VDR inhibitor -2%.
COc1ccc(CCNS(=O)(=O)c2cccc(C(=O)O)c2)cc1OC was read as VDR inhibitor -23%.
CON(C)C(=O)C[C@@H]1C[C@H](OC(=O)c2ccc([N+](=O)[O-])cc2)CN1C(=O)OC(C)(C)C was read as VDR inhibitor -2%.
For CS(=O)(=O)N1CCN(c2ccccc2NC(=O)c2ccc([N+](=O)[O-])o2)CC1 the results were VDR inhibitor inconclusive.
`COc1ccc(NC(=O)C2CCCN(C)C2)cc1OCC(C)C` (stereo not drawn) gave VDR inhibitor -1%.
Screening COc1ccccc1Nc1nc(=O)[nH]nc1C returned VDR inhibitor 13%.
`O=C(CN1C(=O)c2ccc([N+](=O)[O-])cc2C1=O)NCC1CCCO1` (stereo not drawn) gave VDR inhibitor -6%.
For Clc1nc(-c2n[nH]nc2Cl)n[nH]1 the results were VDR inhibitor -15%.
Cc1ccc(S(=O)(=O)Nc2ccccc2CNc2ccc(Br)cn2)cc1 was read as VDR inhibitor -7%.
Screening Cc1ccc(S(=O)(=O)N2C(=O)C(C)SC2=Nc2ccccc2)cc1 (stereo not drawn) returned VDR inhibitor 4%.
COc1ccc(CN2CC(C(=O)NCc3cccc(OC)c3)CC2=O)cc1 (stereo not drawn) was read as VDR inhibitor -4%.
Screening Cc1ccc2nsnc2c1NC(=O)c1ccc(-c2cc(Cl)ccc2Cl)o1 returned VDR inhibitor -6%.
CCC1Oc2ccccc2N(CC(=O)NCC2CCCO2)C1=O (stereo not drawn) was read as VDR inhibitor 1%.
For CCOc1ccccc1OCC(=O)NCc1ccco1 the results were VDR inhibitor -2%.
For C=CCNc1nnc(C)c2ccccc12 the results were VDR inhibitor -10%.
For Cn1c(SCC(=O)O)nc2ccccc2c1=O the results were VDR inhibitor 18%.
O=C(Nc1ccccc1C(F)(F)F)C1CCN(S(=O)(=O)c2ccccc2)CC1 was read as VDR inhibitor -4%.
`COc1cc(OC)cc(C(=O)NCCN2C(=O)S/C(=C\c3cccs3)C2=O)c1` gave VDR inhibitor -4%.
Screening O=C(COc1ccccc1)OCc1cc(=O)n2nc(-c3cccs3)sc2n1 returned VDR inhibitor 9%.
`CCCCC1(C)NC(=O)c2c(C)sc(C(=O)OCC)c2N1` (stereo not drawn) gave VDR inhibitor 8%.
Screening N#CCC(=O)Nc1ccc(C(=O)NCC2(N3CCOCC3)CCCCC2)cc1 returned VDR inhibitor 11%.
For COc1ccc(CCn2c(-c3ccc(C(C)(C)C)cc3)n[nH]c2=S)cc1OC the results were VDR inhibitor -1%.
For CC(C(=O)N1CCc2ccccc2C1)N1C(=O)c2ccccc2C1=O (stereo not drawn) the results were VDR inhibitor 10%.
O=C(Nc1ccc(S(=O)(=O)N2CCCCC2)cc1)C1CC(=O)N(c2ccc(Cl)cc2)C1 (stereo not drawn) was read as VDR inhibitor 5%.
For Cc1cccc(N2CCC(N=CN(C)C)=N2)c1 the results were VDR inhibitor 3%.
Cc1ccc(C)c(NS(=O)(=O)c2ccc3c4c(cccc24)C(=O)N3)c1 was read as VDR inhibitor 1%.
`Cc1ccc(C(=O)COC(=O)c2cc(=O)[nH]c3ccccc23)cc1` gave VDR inhibitor 0%.
Cc1ccc(Cn2c(SCC(=O)NCC3CCCO3)nc3c2c(=O)n(C)c(=O)n3C)cc1 (stereo not drawn) was read as VDR inhibitor -1%.

The last 2 entries of the section above are carried over, then new ones follow.
`Cc1ccc(C(=O)COC(=O)c2cc(=O)[nH]c3ccccc23)cc1` gave VDR inhibitor 0%.
Cc1ccc(Cn2c(SCC(=O)NCC3CCCO3)nc3c2c(=O)n(C)c(=O)n3C)cc1 (stereo not drawn) was read as VDR inhibitor -1%.
For CCn1c(C)c(C)c2cc(C(=O)NCc3ccc(F)cc3)ccc21 the results were VDR inhibitor 11%.
Screening COc1ccccc1CNC(=O)c1ccc(SC)cc1OC returned VDR inhibitor -3%.
For CCC(=O)Nc1cc2nn(-c3ccc(OC)cc3)nc2cc1C the results were VDR inhibitor -3%.
`CCc1ccc(Oc2c(C(F)(F)F)oc3c(CN4CCN(CC)CC4)c(O)ccc3c2=O)cc1` gave VDR inhibitor -2%.
Screening Cc1cc(Cl)c(OCCCN2CCCCC2)c(Br)c1 returned VDR inhibitor -5%.
COc1ccc(/C=C(/NC(=O)c2cccc([N+](=O)[O-])c2)C(=O)O)cc1 was read as VDR inhibitor -18%.
For O=C(Nc1ccc(OC(F)(F)F)cc1)c1ccc2c(c1)no[n+]2[O-] the results were VDR inhibitor -1%.
Screening CC(=O)Oc1cc2c(C(C)=O)coc2c2ccccc12 returned VDR inhibitor 7%.
`CC(C)(O)C(=O)NN(C(=O)c1ccccc1)c1cccc(Br)c1` gave VDR inhibitor -1%.
For Cc1ccc(O)c(C2=NNC(c3ccc(Cl)cc3)C2)c1 (stereo not drawn) the results were VDR inhibitor -21%.
For CC(=O)c1ccc(NC(=O)/C(=C\c2ccccc2)NC(=O)c2ccco2)cc1 the results were VDR inhibitor -12%.
Screening CCCCCCSc1ccc([C@H]2N[C@@](CC(C)C)(C(=O)OC)[C@H]3C(=O)N(C)C(=O)[C@@H]23)cc1OC returned VDR inhibitor -28%.
COc1cc(OC)c(NS(=O)(=O)c2c(C)[nH]c(=O)[nH]c2=O)cc1Cl was read as VDR inhibitor 31%[activator].
O=C(c1cccc(Br)c1)N1CCN(C2=NS(=O)(=O)c3ccccc32)CC1 was read as VDR inhibitor -2%.
`CC(C)NC(=O)c1cccc(Cn2cc(Cl)cn2)c1` gave VDR inhibitor 7%.
CC(=O)N1CCN(c2ccccc2NC(=O)Cc2ccc(Cl)cc2)CC1 was read as VDR inhibitor 13%.
Screening CCN(CC)CCN1C(=O)C(O)=C(C(=O)c2sc(C)nc2C)C1c1cccnc1 (stereo not drawn) returned VDR inhibitor -5%.
Screening CC(CCc1ccccc1)NC(=O)CN1CCN(Cc2ccccc2)C1=O (stereo not drawn) returned VDR inhibitor -3%.
`COc1cc([N+](=O)[O-])ccc1NC(=O)COC(=O)CCOc1ccc(C)cc1` gave VDR inhibitor -25%.
`CC(C)(C)c1ccc(N2C(=O)Cc3c2nc(N)c(C#N)c3N)cc1` gave VDR inhibitor 25%.
`CC(=O)Nc1c(C(N)=O)oc2ccc(Cl)cc12` gave VDR inhibitor -20%.
COC(=O)c1cccc(NC(=S)N2CCN(C)CC2)c1 was read as VDR inhibitor 8%.
`COc1ccc(CCNC(=O)COC(=O)Cc2cccc(F)c2)cc1` gave VDR inhibitor -14%.
Screening CCN(CC)S(=O)(=O)c1cccc(-c2nnc(SCc3nnc(-c4ccccc4)o3)n2C)c1 returned VDR inhibitor -18%.
For CCOC(=O)c1sc2nc(N3CCOCC3)c3c(c2c1N)CCN(Cc1ccccc1)C3 the results were VDR inhibitor 5%.
`COc1ccc(S(=O)(=O)N2CCC(C(=O)NCCC(=O)Nc3ccc(Cl)cc3)CC2)cc1` gave VDR inhibitor 15%.
For CC1CC(C)CN(c2nc(N(C)c3ccccc3)nc(N)c2[N+](=O)[O-])C1 (stereo not drawn) the results were VDR inhibitor -2%.
CCN(CC)S(=O)(=O)c1ccc(OC)c(NC(=O)c2cc3c(=O)n4ccccc4nc3s2)c1 was read as VDR inhibitor -21%.
For COC(=O)CSc1nc(C)c2c(n1)CCCC2 the results were VDR inhibitor 5%.
For COc1ccc(-c2nsc(NC(=O)c3ccccc3Br)n2)cc1 the results were VDR inhibitor 3%.
`CCOc1ccc(N/C=C/C(=O)c2ccc(C)cc2)c([N+](=O)[O-])c1` gave VDR inhibitor 6%.
`Cn1c(SCC(=O)N2CCCc3ccccc32)ncc(C(=O)Nc2ccccc2)c1=O` gave VDR inhibitor 10%.
CCCCn1c(N)c(Sc2ccccc2)c(=O)[nH]c1=O was read as VDR inhibitor 1%.
Screening CC(=O)OCC(=O)c1c[nH]c2ccccc12 returned VDR inhibitor -3%.
N=C(N1CCCc2ccccc21)N1CCCc2ccccc21 was read as VDR inhibitor 4%.
Screening O=c1c(-c2ccc(Cl)cc2)c[nH]n1-c1ccccc1 returned VDR inhibitor 12%.
CCNS(=O)(=O)c1ccc(CCC(=O)NCc2ccc3c(c2)OCO3)cc1 was read as VDR inhibitor 4%.
`O=C(Nc1ccc(F)cc1)c1nc[nH]c1C(=O)O` gave VDR inhibitor inconclusive.
Screening Brc1nc(Br)n(Cc2ccccc2)n1 returned VDR inhibitor 4%.
Screening CN1CCCC1CCNC1C2CC3CC(C2)CC1C3 (stereo not drawn) returned VDR inhibitor -11%.
Screening CCN1CNC(=S)N(c2cccc(C)c2C)C1 returned VDR inhibitor -5%.
Screening O=C(NC[C@@H]1CCCO1)c1cccc2c1C(=O)c1ccc(Cl)cc1S2(=O)=O returned VDR inhibitor 12%.
`CC(C)CC(=O)Nc1cc(C(F)(F)F)ccc1N1CCOCC1` gave VDR inhibitor -10%.
Cc1ccnc(NC(=O)c2ccc(C(=O)c3ccccc3)cc2)c1 was read as VDR inhibitor -10%.
For O=C(Nc1ccccc1)C1CCCCN1S(=O)(=O)c1ccccc1 (stereo not drawn) the results were VDR inhibitor -3%.
Screening Cc1ccc(S(=O)(=O)NC(=O)COc2ccccc2C)c(C)c1 returned VDR inhibitor 7%.
For CCCOC1CCCN(C(=O)c2cc(COc3ccc(F)c(F)c3)on2)C1 (stereo not drawn) the results were VDR inhibitor 11%.
Screening O=C(OCCOc1cccc(Cl)c1)C1CCN(S(=O)(=O)c2ccccc2)CC1 returned VDR inhibitor -6%.

Three structures already listed, ordered by number of heavy atoms, largest number first:
For O=C(Nc1ccccc1)C1CCCCN1S(=O)(=O)c1ccccc1 (stereo not drawn) the results were VDR inhibitor -3%.
`O=C(Nc1ccc(F)cc1)c1nc[nH]c1C(=O)O` gave VDR inhibitor inconclusive.
Screening CCN1CNC(=S)N(c2cccc(C)c2C)C1 returned VDR inhibitor -5%.

Next entries
COc1ccc(C(=O)CN2C(=O)N(c3cc(C)cc(C)c3)S(=O)(=O)c3ccccc32)cc1 was read as VDR inhibitor 4%.
Screening CC(C)(C)NC(=O)NC(=O)CN1C(=O)NC(c2ccccc2)(c2ccccc2)C1=O returned VDR inhibitor -4%.
`CC(C)CNC(=S)NNC(=O)c1csc2c1CCCC2` gave VDR inhibitor 2%.
Screening CC(=O)Nc1ccc2c(CSc3nnc(N)s3)cc(=O)oc2c1 returned VDR inhibitor -6%.
O=C(NCc1cccnc1)NC1(C(F)(F)F)Oc2ccc(Cl)cc2O1 (stereo not drawn) was read as VDR inhibitor -26%.
For Cc1ccc(C)c(Nc2cc(C(=O)NC3CCCC3)c3ccccc3n2)c1 the results were VDR inhibitor -14%.
For O=C(c1ccc(C(F)(F)F)cc1)C1CCCN(C(=O)CCn2cncn2)C1 (stereo not drawn) the results were VDR inhibitor 2%.
CCCCCc1cc(=O)oc2c(C(CCN(CC)CC)c3ccc(N(C)C)cc3)c(OC)cc(OC)c12 (stereo not drawn) was read as VDR inhibitor -2%.
Cc1nnc(N2CCN(c3cccc(Cl)c3)CC2)c2c1nnn2Cc1ccc(F)cc1 was read as VDR inhibitor 4%.
Cc1ccc(OCC(=O)OC2=C(C(=O)c3ccccc3)N(C)S(=O)(=O)c3ccccc32)cc1 was read as VDR inhibitor -18%.
Screening CCOC(=O)c1ccc(OCC2NCCc3cc(OC)c(OC)cc32)cc1 (stereo not drawn) returned VDR inhibitor 5%.
Screening CCOC(=O)C1(C(=O)OCC)COC(=O)C2(CC)OC21 (stereo not drawn) returned VDR inhibitor -3%.
`CCN1C(=O)CS/C1=N\S(=O)(=O)c1ccccc1` gave VDR inhibitor 7%.
CCOC(=O)c1cc2cc([N+](=O)[O-])ccc2oc1=O was read as VDR inhibitor 13%.
O=C(NNc1ncc(C(F)(F)F)cc1Cl)c1ccc(Cl)c(Cl)c1 was read as VDR inhibitor -3%.
CCCCCCc1c(O)c2ccccc2[nH]c1=O was read as VDR inhibitor -7%.
For CCN1C(=O)[C@H]2[C@@H](c3ccc(SC4CCCCC4)c(OC)c3)N[C@@](Cc3ccccc3)(C(=O)OC)[C@H]2C1=O the results were VDR inhibitor -10%.

Retrieved by compound from the entries so far:
CCCCCCc1c(O)c2ccccc2[nH]c1=O was read as VDR inhibitor -7%.
CCOC(=O)c1cc2cc([N+](=O)[O-])ccc2oc1=O was read as VDR inhibitor 13%.
For CCN1C(=O)[C@H]2[C@@H](c3ccc(SC4CCCCC4)c(OC)c3)N[C@@](Cc3ccccc3)(C(=O)OC)[C@H]2C1=O the results were VDR inhibitor -10%.
`CCN1C(=O)CS/C1=N\S(=O)(=O)c1ccccc1` gave VDR inhibitor 7%.

Filtered by structure, the compounds so far containing a tert-butyl group (4)
CON(C)C(=O)C[C@@H]1C[C@H](OC(=O)c2ccc([N+](=O)[O-])cc2)CN1C(=O)OC(C)(C)C was read as VDR inhibitor -2%.
For COc1ccc(CCn2c(-c3ccc(C(C)(C)C)cc3)n[nH]c2=S)cc1OC the results were VDR inhibitor -1%.
`CC(C)(C)c1ccc(N2C(=O)Cc3c2nc(N)c(C#N)c3N)cc1` gave VDR inhibitor 25%.
Screening CC(C)(C)NC(=O)NC(=O)CN1C(=O)NC(c2ccccc2)(c2ccccc2)C1=O returned VDR inhibitor -4%.

This is a subset. The share of hits here may be higher or lower than overall.
